# Vaccinia stage: blocks a specific stage of Vaccinia orthopoxvirus infection; Vaccinia-infected cells, mCherry/Venus stage reporter fluorescence; stronger effect = lower value; some inactives read as strong as hits; activity change (mCherry), % (test concentration not listed); 89,000 compounds, 0.01% hits;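 active = mCherry past -33% and 40 or more points under the early reporter, replicates agreeing; inconclusive = past -33% without that gap or agreement; tested in A549 cells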;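 note: scaled between vehicle wells and reference inhibitor wells; 23 nL library stock went into each well; one replicate is shown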
# Vaccinia stage Venus: second read-out of Vaccinia stage, no call of its own (marks repeat the call); activity change (Venus), %; measured here: Venus reporter, other viral stage;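 negative = less Venus signal; first of two replicates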
# * = called active by the depositor; ? = inconclusive; / = no result given; & = joins results of further samples.
# Start of the data: the first two records, to show the layout:
mol,Vaccinia stage,Vaccinia stage Venus
C[C@H]1CN([C@@H](C)CO)C(=O)c2cc(NS(=O)(=O)c3ccccc3)ccc2O[C@H]1CN(C)S(=O)(=O)c1ccccc1,11,11
CO[C@H]1CN(C)C(=O)c2ccc(NC(=O)C3CC3)cc2OC[C@@H](C)N(CC2CCOCC2)C[C@H]1C,7,0

# The listing (from the top)
mol,Vaccinia stage,Vaccinia stage Venus
C[C@H]1CN([C@@H](C)CO)C(=O)c2cc(NS(=O)(=O)c3ccccc3)ccc2O[C@H]1CN(C)S(=O)(=O)c1ccccc1,11,11
CO[C@H]1CN(C)C(=O)c2ccc(NC(=O)C3CC3)cc2OC[C@@H](C)N(CC2CCOCC2)C[C@H]1C,7,0
Cc1ccc(S(=O)(=O)Nc2ccc3c(c2)C(=O)N([C@H](C)CO)C[C@@H](C)[C@@H](CN(C)C)O3)cc1,14,-2
CC(C)CC#Cc1ccc2c(c1)O[C@H](CN(C)C(=O)c1ccccn1)[C@@H](C)CN([C@@H](C)CO)S2(=O)=O,-6,-9
C[C@H]1CN([C@@H](C)CO)C(=O)c2cc(NC(=O)C3CCCCC3)ccc2O[C@@H]1CN(C)Cc1ccc2c(c1)OCO2,3,4
CC(C)NC(=O)N[C@H]1CC[C@@H](CCNC(=O)C2CCOCC2)O[C@H]1CO,13,12
C[C@@H]1CN([C@H](C)CO)C(=O)Cc2cc(NC(=O)Nc3ccc(C(F)(F)F)cc3)ccc2O[C@H]1CN(C)Cc1ccc(-c2ccccc2)cc1,-7,1
COCC(=O)N1[C@H](C#N)[C@H](c2ccccc2-c2cccc(OC)c2)[C@H]1CO,4,-1
Cc1noc(C)c1S(=O)(=O)Nc1ccc2c(c1)C(=O)N([C@@H](C)CO)C[C@H](C)[C@@H](CN(C)C(=O)Nc1ccc(F)cc1)OCCCC[C@H](C)O2,-22,-15
C[C@H](CO)N1C[C@H](C)[C@@H](CN(C)C(=O)C2CCCCC2)Oc2cc(C3=CCCC3)ccc2S1(=O)=O,-26,-11

# (more compounds)
mol,Vaccinia stage,Vaccinia stage Venus
CCC(=O)Nc1ccc2c(c1)OC[C@@H](C)N(C(=O)NC(C)C)C[C@@H](C)[C@H](OC)CN(C)C2=O,14,6
COc1ccc(S(=O)(=O)N(C)C[C@H]2Oc3ccc(NS(=O)(=O)c4cccs4)cc3CC(=O)N([C@H](C)CO)C[C@H]2C)cc1,-25,-13
C[C@@H]1CN([C@H](C)CO)S(=O)(=O)c2ccc(/C=C/c3ccccc3)cc2O[C@@H]1CN(C)C(=O)Nc1cccc(F)c1,?,/
COC(=O)[C@H]1[C@H](CO)[C@H]2Cn3c(ccc(-c4ccccc4)c3=O)[C@@H]1N2CCc1ccccc1,2,-1
CN1C(=O)c2cc(NC(=O)c3ccno3)ccc2OC[C@H]2O[C@@H](CC(=O)NC3Cc4ccccc4C3)CC[C@@H]21,7,-6
COc1ccc(NC(=O)N2CCCCN3[C@@H](CO)[C@H](c4ccc(C#CCC(C)C)cc4)[C@@H]3C2)cc1,?,/
COc1ccc(NC(=O)Nc2cccc3c2O[C@@H](CN(C)Cc2ccncc2)[C@@H](C)CN([C@H](C)CO)C3=O)cc1,-1,-6
COCC(=O)Nc1ccc2c(c1)OC[C@H](C)N(CC1CCCCC1)C[C@H](C)[C@H](OC)CN(C)C2=O,3,7
C[C@H](NC(=O)C[C@H]1CC[C@@H]2[C@H](COC[C@H](O)CN2C(=O)Nc2cc(Cl)cc(Cl)c2)O1)c1ccccc1,-6,-10
CO[C@H]1CN(C)C(=O)c2cc(NC(=O)C3CC3)ccc2OC[C@@H](C)N(C(=O)C2CCCCC2)C[C@H]1C,-6,0

# New compounds follow
mol,Vaccinia stage,Vaccinia stage Venus
COc1ccc(NC(=O)Nc2cccc3c2O[C@H](CN(C)S(=O)(=O)c2ccc(Cl)cc2)[C@H](C)CN([C@@H](C)CO)C3=O)cc1,-10,-2
CC(C)CC#Cc1ccc2c(c1)O[C@H](CN(C)Cc1ccccn1)[C@@H](C)CN([C@@H](C)CO)S2(=O)=O,?,/
N#Cc1ccc(-c2ccc([C@@H]3[C@@H](CO)N4C(=O)CN(C(=O)C5CCCC5)C[C@@H]34)cc2)cc1,-22,-17
COc1ccc(CN(C)C[C@@H]2Oc3c(NC(=O)NC4CCCCC4)cccc3C(=O)N([C@H](C)CO)C[C@@H]2C)cc1,-16,-3
C[C@@H]1CN([C@H](C)CO)C(=O)c2cc(NC(=O)C3CC3)ccc2O[C@H]1CN(C)S(=O)(=O)c1cccs1,15,10
CCNC(=O)C[C@@H]1C=C[C@@H](NC(=O)NC2CCCCC2)[C@@H](CO)O1,10,10
COc1ccc(-c2ccc3n(c2=O)C[C@H]2[C@H](CO)[C@@H](C(=O)N4CCOCC4)[C@@H]3N2C)cc1,11,8
C[C@H](CO)N1C[C@H](C)[C@@H](CN(C)Cc2ccc(-c3ccccc3)cc2)Oc2ccc(NC(=O)C3CC3)cc2CC1=O,?,/
O=C(c1cnccn1)N1CC2(C1)[C@H](c1ccccc1)[C@H](CO)N2C(=O)c1ccccc1,13,8
CCNC(=O)C[C@@H]1CC[C@H]2[C@@H](COC[C@H](O)CN2C(=O)C2CCCC2)O1,13,14

# (listing goes on)
mol,Vaccinia stage,Vaccinia stage Venus
C[C@H](CO)N1C[C@H](C)[C@@H](CN(C)CC2CCCCC2)Oc2ccc(NC(=O)Nc3ccc(F)cc3)cc2CC1=O,?,/
COc1ccc(S(=O)(=O)Nc2ccc3c(c2)C(=O)N([C@H](C)CO)C[C@H](C)[C@@H](CN(C)C(=O)Nc2ccc(C(F)(F)F)cc2)O3)cc1,14,1
O=S(=O)(c1ccccc1F)N1CC[C@H]2[C@H](CO)Nc3ccc(-c4ccccc4F)cc3[C@H]21,-24,-17
O=C(c1ccccn1)N1CC[C@@H]2[C@@H](CO)Nc3ccc(-c4ccc(F)cc4)cc3[C@@H]21,-13,-19
C[C@H](CO)N1C[C@H](C)[C@H](CN(C)C(=O)CCCN(C)C)OCCCC[C@H](C)Oc2ccc(NS(C)(=O)=O)cc2C1=O,21,24
O=C(Cc1ccncc1)NCC[C@@H]1CC[C@@H](NC(=O)C2CCCC2)[C@@H](CO)O1,-3,0
O=C(NC1CCCC1)N1CCCCN2[C@@H](CO)[C@@H](c3ccc(-c4cncnc4)cc3)[C@@H]2C1,14,8
COc1ccccc1CNC(=O)C[C@@H]1CC[C@@H]2[C@H](COC[C@@H](O)CN2C(=O)Nc2ccc(Cl)cc2)O1,?,/
O=C(Cc1ccccn1)N1CCCCN2[C@H](CO)[C@@H](c3ccc(C#Cc4ccccc4)cc3)[C@@H]2C1,4,3
CCNC(=O)C[C@H]1CC[C@@H]2[C@@H](COc3ccc(NC(=O)c4ccc(F)cc4)cc3C(=O)N2C)O1,-3,-3

# (listing goes on)
mol,Vaccinia stage,Vaccinia stage Venus
COc1ccc(CN(C)C[C@@H]2Oc3ccc(NC(=O)Nc4c(C)noc4C)cc3C(=O)N([C@@H](C)CO)C[C@@H]2C)cc1,0,-2
CCC(=O)N1C[C@@H](C)[C@@H](OC)CN(C)C(=O)c2cc(NC(=O)C3CC3)ccc2OC[C@@H]1C,6,-8
O=C(C[C@H]1CC[C@@H](NC(=O)CN2CCOCC2)[C@@H](CO)O1)NCc1cccc(F)c1,-2,1
C[C@@H]1CN([C@H](C)CO)C(=O)c2cc(NC(=O)CCCN(C)C)ccc2O[C@H]1CN(C)Cc1ccncc1,18,4
O=C(N[C@@H]1CC[C@@H](CCNS(=O)(=O)c2ccc(Cl)cc2)O[C@H]1CO)c1cnccn1,7,10
N#C[C@@H]1N[C@H](CO)[C@@H]1c1ccc(C#Cc2ccccc2F)cc1,-8,-1
CCCC#Cc1ccc2c(c1)O[C@H](CN(C)C(=O)c1ccncc1)[C@H](C)CN([C@@H](C)CO)S2(=O)=O,-1,-6
CC(C)CC#Cc1ccc2c(c1)O[C@@H](CN(C)CC1CCOCC1)[C@H](C)CN([C@H](C)CO)S2(=O)=O,-25,-27
C[C@H]1CN([C@@H](C)CO)S(=O)(=O)c2ccc(C#Cc3ccncc3)cc2O[C@@H]1CN(C)C(=O)C1CCCCC1,?,/
O=C(NCC[C@H]1CC[C@H](NC(=O)C2CCC2)[C@@H](CO)O1)c1ccc(F)cc1,-3,3

# (further entries)
mol,Vaccinia stage,Vaccinia stage Venus
COc1ccc(S(=O)(=O)N[C@H]2CC[C@@H](CCn3cc(-c4ccccc4F)nn3)O[C@@H]2CO)cc1,?,/
C[C@H]1CN([C@@H](C)CO)C(=O)c2cc(NS(=O)(=O)c3cn(C)cn3)ccc2O[C@@H]1CN(C)Cc1ccc(Cl)c(Cl)c1,6,2
COCC(=O)N1C[C@H](C)[C@H](OC)CN(C)C(=O)c2ccc(NC(=O)c3ccc(F)cc3)cc2OC[C@H]1C,-7,-10
C[C@@H]1CCCCO[C@H](CN(C)Cc2ccc(C(=O)Nc3ccccc3N)cc2)[C@@H](C)CN([C@H](C)CO)C(=O)c2cc(NS(=O)(=O)c3ccccc3)ccc2O1,19,10
c1cc(-c2ccc(C3[C@H]4CNC[C@@H]3N4Cc3nccs3)cc2)ccn1 (stereo partly drawn),2&-3,10&-4
[N-]=[N+]=Nc1ccccc1C[C@]1(C(=O)N2CCCCC2)N=C(c2ccc(OCCCO)cc2)O[C@H]1c1ccccc1,-31,-21
C[C@@H]1CCCCO[C@H](CN(C)Cc2ccc3c(c2)OCO3)[C@H](C)CN([C@H](C)CO)C(=O)c2cc(NS(=O)(=O)c3ccc(Cl)cc3)ccc2O1,?,-7
C/C=C/c1ccc(C2[C@@H]3CN(C(=O)Nc4ccc(F)cc4)C[C@H]2N3)cc1 (stereo partly drawn),?,-3
CC(C)NC(=O)N(C)C[C@@H]1Oc2ccc(NC(=O)C3CC3)cc2CC(=O)N([C@@H](C)CO)C[C@H]1C,17,8
C[C@@H]1CN([C@@H](C)CO)C(=O)c2cc(Br)cnc2O[C@H]1CN(C)Cc1ccc2c(c1)OCO2,2,-1

# (cont.)
mol,Vaccinia stage,Vaccinia stage Venus
CCCNC(=O)N(C)C[C@H]1Oc2cc(C3=CCCC3)ccc2S(=O)(=O)N([C@@H](C)CO)C[C@H]1C,13,1
O=C(C[C@H]1C=C[C@@H](NC(=O)Nc2cccc(F)c2)[C@H](CO)O1)NCC1CCCCC1,-18,-14
O=C(C[C@H]1C[C@H]2c3cc(NC(=O)NC4CCCCC4)ccc3O[C@H]2[C@H](CO)O1)NCc1cccnc1,6,0
C[C@H](CO)N1C[C@H](C)[C@H](CN(C)CC2CCCCC2)Oc2c(NS(=O)(=O)c3ccc(Cl)cc3)cccc2C1=O,-8,3
C[C@@H]1CN([C@@H](C)CO)C(=O)c2cc(N(C)C)ccc2O[C@@H](C)CCCCO[C@@H]1CN(C)S(=O)(=O)c1ccccc1,13,10
Cc1ccc(S(=O)(=O)Nc2ccc3c(c2)C(=O)N([C@@H](C)CO)C[C@H](C)[C@@H](CN(C)C(=O)c2ccccc2)OCCCC[C@H](C)O3)cc1,-11,-14
CNC[C@H]1Oc2ncc(-c3cncnc3)cc2C(=O)N([C@@H](C)CO)C[C@H]1C,15,12
CC(C)NC(=O)N(C)C[C@@H]1Oc2ncc(C#CCc3ccccc3)cc2C(=O)N([C@@H](C)CO)C[C@H]1C,13,6
COc1ccc(CN(C)C[C@@H]2Oc3ccc(NS(=O)(=O)c4cccs4)cc3C(=O)N([C@@H](C)CO)C[C@H]2C)cc1,8,0
CCCNC(=O)N(C)C[C@H]1Oc2ncc(-c3ccncc3)cc2C(=O)N([C@H](C)CO)C[C@H]1C,6,-3

# The results go on.
mol,Vaccinia stage,Vaccinia stage Venus
COCCOC(=O)N1C(=O)[C@@]2(c3cc(C#CCCO)ccc31)[C@H](C(=O)NC[C@H](O)c1ccccc1)[C@H]1C(=O)O[C@H](c3ccccc3)[C@H](c3ccccc3)N1[C@@H]2c1ccc(O)cc1,21,6
O=C(C[C@@H]1C[C@H]2c3cc(NC(=O)C4CCC4)ccc3O[C@H]2[C@H](CO)O1)NCc1ccncc1,7,2
C[C@H](CO)N1C[C@H](C)[C@H](CN(C)S(=O)(=O)c2ccccc2)Oc2ccc(NC(=O)Cc3ccccc3)cc2CC1=O,-6,5
C[C@H]1CN([C@@H](C)CO)C(=O)c2cc(NC(=O)C3CC3)ccc2O[C@H]1CN(C)C(=O)Nc1ccc2c(c1)OCO2,-4,-2
COc1cccc(-c2ccc3c(c2)[C@@H]2[C@@H](CCN2C(=O)CN2CCOCC2)[C@H](CO)N3)c1,7,3
Cc1ccccc1S(=O)(=O)NCC[C@@H]1CC[C@H](NC(=O)C2CC2)[C@@H](CO)O1,11,17
COc1cccc(-c2ccc3n(c2=O)C[C@@H]2[C@@H](CO)[C@H](C(=O)NCC4CC4)N(C)[C@H]32)c1,-3,-5
OC[C@@H]1[C@@H](c2ccc(-c3cccnc3)cc2)[C@@H]2CN(CC3CCOCC3)CCCCN12,10,4
CCC(=O)NC[C@H]1[C@@H](c2ccc(-c3ccc(OC)cc3)cc2)[C@@H](CO)N1C(C)=O,2,0
CNC[C@@H]1Oc2c(NC(=O)Nc3c(C)noc3C)cccc2C(=O)N([C@H](C)CO)C[C@@H]1C,7,20

# Single records (already shown). Order of values: Vaccinia stage | Vaccinia stage Venus
# C[C@H]1CN([C@@H](C)CO)C(=O)c2cc(NC(=O)C3CC3)ccc2O[C@H]1CN(C)C(=O)Nc1ccc2c(c1)OCO2 across the screens: -4 | -2
# COCCOC(=O)N1C(=O)[C@@]2(c3cc(C#CCCO)ccc31)[C@H](C(=O)NC[C@H](O)c1ccccc1)[C@H]1C(=O)O[C@H](c3ccccc3)[C@H](c3ccccc3)N1[C@@H]2c1ccc(O)cc1 across the screens: 21 | 6
# Cc1ccccc1S(=O)(=O)NCC[C@@H]1CC[C@H](NC(=O)C2CC2)[C@@H](CO)O1 across the screens: 11 | 17
# O=C(C[C@@H]1C[C@H]2c3cc(NC(=O)C4CCC4)ccc3O[C@H]2[C@H](CO)O1)NCc1ccncc1 across the screens: 7 | 2
# CNC[C@@H]1Oc2c(NC(=O)Nc3c(C)noc3C)cccc2C(=O)N([C@H](C)CO)C[C@@H]1C across the screens: 7 | 20

# Not all compounds are listed (hit frequency here may not be typical).
